From PubChem
Mtb hypoxia rep: PubChem AID 1159583; fluorescence inhibition, % (concentration not given with the values); M. tuberculosis hypoxia-regulated fluorescent reporter, fluorescence; actives 0.1% (n = 300,000);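 active = 35 to 45% if threefold the growth effect, above 45% if 1.5-fold the growth effect; inactive = the rest, general growth blockers included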;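 note: wells of about 50 µL received 100 nL stock; 0% = vehicle wells and 100% = reference inhibitor wells; whole bacteria with a GFP reporter of the hypoxia response; strong numbers were not always called active; many hits fall short of the cut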
ugtP null kill: growth inhibition of ugtP-null S. aureus, primary screen, RN4220 ugtP deletion, OD600. 16 h; some inactives read as strong as hits. growth inhibition, % (no concentration beside the values). actives 0.54% (n = 330,000);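 active = z-score under -3 and OD600 up to 0.15 on both plates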;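 note: plate controls were untreated wells for no effect and antibiotic for full effect; wells of about 80 µL received 100 nL stock; the first replicate is given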
Sa RN4220 lethal: growth inhibition of S. aureus RN4220, primary screen, OD600 | 16 h | inhibition, % (no concentration beside the values) | actives 0.33% (n = 330,000) | AID 1259311, 2017;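 active = z-score of -3 or lower and OD600 up to 0.18 on both plates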;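 note: plate controls were untreated cells for no effect and reference antibiotic for full effect; stock transfer was 100 nL into about 80 µL; one replicate is shown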
PrP UTR inh: inhibition of PrP 5' UTR reporter expression. cell-based PrP 5' UTR mRNA reporter, plate reader. inhibition, % (test concentration not listed). actives 0.35% (n = 340,000). AID 488862, 2010;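 active = every replicate at 50% or more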;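 note: 0 = median of the neutral control wells; tested in H4 reporter cells; numbers are from one replicate; inactives centre near -14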
Autofluor counter: counter-screen for toxin protease inhibitors: compound fluorescence; compound autofluorescence counterscreen, microsphere flow cytometry; stronger effect = higher value; fluorescence intensity (concentration not given with the values); actives 3.1% (n = 360,000);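 active = at least 3 SD above the mean of all compounds, about 16000 in these data; inconclusive = too few beads counted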;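 note: 100 nL of 1 mM stock went into each well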
BJeLR viability: MLPCN primary cell-based screen for lethality selective to Ras in HRASV12 cells | BJeLR (HRASV12) viability, CellTiter-Glo ATP luminescence, 48 h; reference of the scale not given here | inhibition, % (test concentration not listed) | actives 0.17% (n = 300,000);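 active = replicate mean above 50%; inconclusive = above 50% but judged a plate artefact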;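 note: 50 nL library stock added to about 25 µL; numbers are from one replicate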
Mtb hypoxia rep growth: also measured in Mtb hypoxia rep; calls as there; growth inhibition, %; measured here: M. tuberculosis growth (absorbance);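 0% = vehicle and 100% = reference antibiotic; read after six days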
* hit, by the source's call; ? = inconclusive; . = not tested or not shown; & = joins results of further samples. Hits appear at their usual frequency; about 4% have a hit in one of these screens.

SMILES | Mtb hypoxia rep | Mtb hypoxia rep growth | ugtP null kill | Sa RN4220 lethal | PrP UTR inh | Autofluor counter | BJeLR viability
Cc1ccc(NC(=O)CCc2c(C)nc3ncnn3c2C)cc1 | 11 | 5 | -11 | 1.4 | -22 | 8994 | -30
COC(=O)NN=C1CCCc2ccccc21 | 8 | 8 | 0 | 4.7 | . | . | .
Cc1ccc(NC(=S)NCCN2CCOCC2)cc1 | . | . | . | . | -10 | 3273 | -6
CCCCOCCCNCC(=O)Nc1ccc(S(N)(=O)=O)cc1 | -3 | 2 | -16 | -1.8 | -21 | 5263 | 6
Cc1ccc(C)c(C(=O)OCC(=O)N(C)c2ccccc2)c1 | 9 | -2 | 11 | 1.2 | -6 | 3602 | -5
CN(C(=O)c1ccc(NC(=O)Cc2cccc(NC(=O)C3CCCN(C(=O)C4CC4)C3)c2)cc1)C1CCCC1 (stereo not drawn) | 8 | 10 | 4 | 3.9 | -11 | 3709 | .
CCOC(=O)c1c(/N=C/N(C)C)sc(/C=N/Nc2ccccc2)c1-c1ccccc1 | . | . | . | . | -24 | 2377 | 6
O=c1cc(-c2ccccc2Cl)c2c([nH]1)CCC2 | 0 | 6 | -5 | -5.6 | -15 | 5713 | 11
CC1(C)S[C@@H]2[C@H](NC(=O)Cc3ccccc3)C(=O)N2[C@H]1C(=O)O | 0 | 14 | 100* | 100* | 5&-4 | 4500&3730 | -5&2
O=C(CCS(=O)(=O)c1ccc(Br)cc1)NCCc1ccccc1 | -1 | 2 | 5 | 3.9 | 7 | 3989 | -6
COc1cccc(-c2csc(NC(=O)C3CC3)n2)c1 | 7 | 11 | 10 | 2.6 | -60 | 5613 | -5
CNC(=O)N(O)C1N(c2ccccc2)C(=S)SC1(C)C (stereo not drawn) | 4 | 2 | 6 | 5.1 | -31 | 2002 | -3
Oc1ccc(Nc2nc(-c3cccnc3)cs2)cc1 | 9 | 7 | 0 | 1.8 | -53 | 3676 | -2
C=CCNC(=O)C12CCC(C)(C(=O)C1Br)C2(C)C (stereo not drawn) | . | . | -4 | 1.6 | -6 | 3038 | 1
Cc1cc(C)n(CC(=O)N/N=C/c2ccco2)n1 | . | . | . | . | -8 | ? | 1
CCCn1c(=NC(=O)c2ccco2)c(C(=O)OCC)cc2c(=O)n3ccccc3nc21 | 7 | 2 | -4 | 5.0 | -11 | 6258 | -6
CCc1cc2c(=O)[nH]cnc2s1 | . | . | 2 | 0.6 | -13 | 3528 | 6
Nc1nc2n(n1)C(=O)CC(c1ccccc1[N+](=O)[O-])N2 (stereo not drawn) | 12 | 5 | 8 | 3.5 | 78* | 4481 | 9
CCCCNC(=O)C1C2C=CC3(CN(Cc4ccccc4Cl)C(=O)C13)O2 (stereo not drawn) | 2 | 11 | 3 | 0.8 | -31 | 10102 | 3
O=S(=O)(Cc1cc(Oc2ccccc2)nc(-c2ccccc2)n1)c1ccccc1 | . | . | -1 | 2.8 | -18 | 2807 | -1
O=C(C1=C(O)C(=O)N(Cc2cccnc2)C1c1ccccn1)c1cccs1 (stereo not drawn) | 9 | -1 | 3 | 5.0 | -14 | 3349 | 6
O=C(Nc1ccc2oc(-c3ccncc3)nc2c1)c1ccccc1 | -1 | 8 | 11 | 2.3 | -22 | 3815 | -5
CC(C)CCNC(=O)c1ccc(Cn2c(=S)[nH]c3ccccc3c2=O)cc1 | 9 | 3 | 0 | -5.1 | -4 | 3918 | -5
COc1ccc(C)cc1S(=O)(=O)N1CCN(C(=O)c2ncoc2-c2cccc(F)c2)CC1 | 4 | 0 | 10 | 3.5 | -14 | 3005 | -9
O=C(N/N=C/c1cc([N+](=O)[O-])ccc1O)c1cccc(N2CCCC2=O)c1 | . | . | . | . | -3 | 5087 | -4

(listing goes on)
SMILES | Mtb hypoxia rep | Mtb hypoxia rep growth | ugtP null kill | Sa RN4220 lethal | PrP UTR inh | Autofluor counter | BJeLR viability
Cc1cccc(N2C(=O)Cc3ccccc3C2=O)c1 | 4 | -3 | 9 | 2.3 | -11 | 3612 | 0
CCOC(=O)CN1C(=O)C(=O)c2cccc(C)c21 | 9 | 11 | 10 | 6.5 | -17 | 6056 | 7
CCCNC(=O)[C@H](Cc1c[nH]c2ccccc12)NC(=O)c1ccccc1Cl | 1 | 0 | 5 | 1.7 | -36 | 2512 | 8
CNC(=O)N(O)C1N(N=Cc2ccc(C)cc2)C(=S)SC1(C)C (stereo not drawn) | 17 | -6 | 10 | 3.3 | . | . | .
Cc1ccc(-c2nnc(SCC(=O)N3CCN(c4ccccc4)CC3)o2)cc1 | . | . | 0 | 0.2 | -16 | 3159 | 9
CCN(CC)CCN(Cc1cc2cc3c(cc2[nH]c1=O)OCO3)C(=S)NCCOC | 16 | 0 | 9 | 4.1 | -10 | 4089 | -4
Cc1c(N=Cc2nc3ccccc3n2C)c(=O)n(-c2ccccc2)n1C | -3 | -3 | -2 | 0.8 | -31 | 8736 | 7
CN(C)c1ccc(/C=C2\CCCCC2=O)cc1 | -3 | 2 | -2 | 9.9 | -88 | 2663 | 5
COc1ccccc1NC(=O)c1ccc(NC(=O)CSc2nncn2C)cc1 | -9 | -1 | 2 | 9.6 | -27 | 2717 | -15
COc1ccc(OC)c(CC(NC(C)=O)C(=O)NC2CCN(c3c(Cc4ccccc4)c(C)nc4ncnn34)CC2)c1 (stereo not drawn) | 5 | -2 | 3 | 5.1 | -86 | 2422 | 9
CCN(CC)c1ccc(/C=N/Nc2nc(C)cc(C)n2)c(O)c1 | . | . | . | . | 13 | 2032 | 19
CP(=O)(Nc1cc(Cl)ccc1Cl)c1nc2c(s1)CCCC2 (stereo not drawn) | 6 | 2 | 1 | 1.4 | -9 | 4804 | -7
CC(C)N(C(=O)[C@H]1C[C@H](CC(=O)NCCN2CCOCC2)C(=O)N2CCc3c([nH]c4ccc(Cl)cc34)[C@]12C)C(C)C | 0 | 4 | -3 | 4.9 | -3 | 3636 | .
COc1ccccc1C(=O)NCC(=O)N1CCN(S(=O)(=O)c2ccc3c(c2)OCCO3)CC1 | 4 | 8 | 3 | 5.1 | -2 | . | -3
COc1ccc(CNC(=O)C2C3C=CC4(CN(Cc5cccnc5)C(=O)C24)O3)cc1 (stereo not drawn) | . | . | 3 | 3.2 | -12 | 3868 | -1
O=C(N/N=C/c1ccc[nH]1)c1ccc2c(c1)OCO2 | . | . | . | . | -84 | 3990 | -3
O=C(CN1C(=O)NC2(CCCCCC2)C1=O)Nc1ccc([N+](=O)[O-])cc1 | 5 | 11 | -4 | 0.4 | -7 | 3165 | .
NNC(=O)c1oc2nc(-c3ccccc3)cc(-c3ccco3)c2c1N | -5 | -1 | -17 | 3.1 | . | 5185 | 0
Cc1cccc(-n2nnnc2-c2cnccc2C(F)(F)F)c1C | 7 | -8 | 4 | 1.7 | -6 | 5928 | 9
CCN1CCN(C(=S)Nc2cccc([N+](=O)[O-])c2)CC1 | 2 | 5 | 2 | 2.8 | -18 | 2254 | 3
COc1ccccc1/C=C1\SC(N2CCC(C)CC2)=NC1=O | 5 | 3 | -6 | 3.7 | -14 | 2605 | 2
Cn1c(N)c(C(=O)c2ccccc2)c(=O)n(C)c1=O | . | . | -20 | -1.3 | 13 | 4256 | -5
Cc1ccc(C)c(OCCC(=O)OCC(=O)N(C)c2c(N)n(Cc3ccccc3)c(=O)[nH]c2=O)c1 | 5 | 3 | 6 | 1.6 | -23 | 4814 | -7
O=C(CC(Nc1ccccc1)C(=O)O)c1ccccc1 (stereo not drawn) | 7 | 9 | 4 | 6.3 | -139 | 3527 | 0
Cc1ccsc1/C=N/NC(=O)c1ccc([N+](=O)[O-])cc1 | . | . | . | . | -60 | 4120 | -3

(continued)
SMILES | Mtb hypoxia rep | Mtb hypoxia rep growth | ugtP null kill | Sa RN4220 lethal | PrP UTR inh | Autofluor counter | BJeLR viability
CN1CCN(NC(=O)Nc2ccc(Br)cc2)CC1 | 7 | -1 | 12 | 7.0 | -3 | 4129 | -5
CCOC(=O)c1sc(NC(=O)Nc2ccccc2Cl)cc1C | -2 | 0 | -10 | -4.8 | -48 | 10604 | 23
COc1cc2c(cc1OC)C(c1cccc([N+](=O)[O-])c1)=NCC2 | 6 | 17 | -4 | -2.2 | 18 | 3870 | 2
COc1ccc(NC(=O)CC(C(=O)O)C(C)c2ccccc2)cc1 (stereo not drawn) | 10 | 8 | 7 | 2.1 | -23 | 3678 | 7
COCCNC(=O)CSc1cc(=O)n(C)c2cc(Cl)ccc12 | -12 | -5 | 4 | 4.7 | -11 | 2627 | 0
O=C(COc1ccc2ccccc2c1)NN1C(=O)c2ccccc2C1=O | -9 | -10 | -3 | -7.1 | -2 | 2222 | 0
Cc1ccc(/C=C(\C#N)C(=O)Nc2cccc3ncccc23)o1 | 10 | 9 | -1 | 5.8 | -16 | 8707 | 10
COc1cc(/C=N/NC(=O)CC#N)ccc1Oc1nc(Cl)ncc1F | . | . | . | . | -27 | 3711 | -1
O=C1c2ccccc2NC(c2cn[nH]c2-c2ccc(Cl)cc2)N1O (stereo not drawn) | . | . | . | . | -15 | 2454 | 6
C=CCOc1ccc(/C=C(\C#N)C(=O)Nc2ccccn2)cc1 | 7 | -2 | 10 | 5.6 | -9 | 4323 | -9
Cc1c(N=C2NC(=O)C(CC(=O)Nc3ccc(Cl)cc3)S2)c(=O)n(-c2ccccc2)n1C (stereo not drawn) | . | . | 10 | 2.4 | -17 | 5008 | 2
C=CCn1c(=NC(=O)C2COc3ccccc3O2)sc2cccc(OC)c21 (stereo not drawn) | 14 | 12 | 9 | 6.1 | -14 | 3727 | -12
COc1cccc(C2CC(C(F)(F)F)n3ncc(C(=O)NCC4CCCO4)c3N2)c1 (stereo not drawn) | -2 | -6 | 0 | -3.5 | -18 | 13244 | -6
CCOC(=O)Cc1csc(NS(=O)(=O)c2ccc(C(F)(F)F)cc2)n1 | -3 | 4 | 4 | 8.4 | . | . | -14
Cn1/c(=N/NC(=O)c2ccccc2F)sc2ccccc21 | . | . | . | . | -50 | 1985 | 7
COc1ccc(C(=O)c2c(O)cc(-c3ccc(OC)cc3)oc2=O)cc1 | 5 | 4 | 11 | 3.0 | -17 | 2458 | 9
COc1ccccc1-n1c(SCC(=O)N2CCCCC2)nc2cccnc21 | . | . | 7 | -1.3 | -18 | 3738 | 6
CCCCC(=O)Nc1ccc(NC(=S)NC(=O)CCCCl)cc1OC | 3 | -1 | 7 | -0.6 | -16 | 2178 | -9
COc1ccc(OC)c(NC2=C(Cl)C(=O)N(Cc3ccccc3)C2=O)c1 | 6 | 9 | 11 | -2.4 | 6 | 2384 | 1
CC(C)Cc1cc(C(=O)N2CCN(c3ccc(F)cc3)CC2)no1 | 9 | 11 | -6 | -5.0 | -7 | 6459 | -5
CCc1cccc(NC(=O)C2CCCC2)c1 | 8 | 8 | -14 | 5.7 | -19 | 3781 | -19
O=[N+]([O-])c1cccc(-c2nnn(C34CC5CC(CC(C5)C3)C4)n2)c1 | . | . | -6 | -1.3 | -49 | 5890 | -11
O=C1CN(C(=O)COC(=O)c2ccco2)c2ccccc2N1 | -13 | 7 | -2 | -0.1 | -10 | 7211 | .
CN1CCc2c(sc(NC(=O)c3ccc(S(=O)(=O)N4CCOCC4)cc3)c2C(N)=O)C1 | 2 | -4 | 2 | -11 | -24 | 6256 | 4
Cc1ccccc1N=C(NO)c1cccnc1 | 0 | -2 | 7 | 1.4 | -16 | 3099 | 13
CCCc1nc2ccccc2c(=O)n1CC(=O)c1ccc(OC)cc1 | 1 | -5 | 17 | 0.6 | -8 | 3836 | -13
CCOc1ccccc1NC(=O)CCNC(=O)Cn1ccc2ccccc2c1=O | -4 | 3 | 4 | 2.2 | -22 | 3575 | -1

Five compounds out of the list, sorted by molar mass, falling:
SMILES | Mtb hypoxia rep | Mtb hypoxia rep growth | ugtP null kill | Sa RN4220 lethal | PrP UTR inh | Autofluor counter | BJeLR viability
Cc1c(N=C2NC(=O)C(CC(=O)Nc3ccc(Cl)cc3)S2)c(=O)n(-c2ccccc2)n1C (stereo not drawn) | . | . | 10 | 2.4 | -17 | 5008 | 2
COc1ccc(OC)c(NC2=C(Cl)C(=O)N(Cc3ccccc3)C2=O)c1 | 6 | 9 | 11 | -2.4 | 6 | 2384 | 1
COc1cc(/C=N/NC(=O)CC#N)ccc1Oc1nc(Cl)ncc1F | . | . | . | . | -27 | 3711 | -1
O=C1c2ccccc2NC(c2cn[nH]c2-c2ccc(Cl)cc2)N1O (stereo not drawn) | . | . | . | . | -15 | 2454 | 6
CCCc1nc2ccccc2c(=O)n1CC(=O)c1ccc(OC)cc1 | 1 | -5 | 17 | 0.6 | -8 | 3836 | -13
